# BmaI1: BmaI1 acyl-homoserine lactone synthase inhibition – biochemical, fluorescence intensity, with counterscreen (AID 720554); BmaI1 enzyme assay, fluorescence intensity; active compounds read high; test concentration not given here; a few actives read low; strong numbers were not always called active; inhibition, %; hit rate 0.4% among 12,000;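 active = both replicates within 2 robust z-scores of the inhibited control and a quiet counterscreen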;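 also: 0% = uninhibited enzyme and 100% = inhibited control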
# BmaI1 counterscreen: further read-out of BmaI1, marked with its call; inhibition, %; measured here: counterscreen; design of the counterscreen not given here;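 first of two replicates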
# Numbers without * were called inactive.
SMILES,BmaI1,BmaI1 counterscreen
Cc1cc(C)cc(OCC(=O)NC2CCCCC2C)c1 (stereo not drawn),12,10
CC(SCc1cn2cc(Cl)ccc2n1)C(=O)O (stereo not drawn),-6,-5
Cc1cc(C)nc(SCC(=O)OCC(=O)N2CCc3ccccc32)n1,13,6
CC(C)C(=O)Nc1ccccc1OC(F)F,9,8
Cc1csc2nc(CSc3nnc(-c4ccccc4Cl)n3C3CCCC3)cc(=O)n12,43,8
CCC(c1nnc(SC(C)C(=O)NCc2ccc3c(c2)OCO3)n1Cc1ccccc1)N(C)C (stereo not drawn),25,6
CCCCn1c(SCC(=O)NC(C)(C#N)C(C)C)nnc1C(CC)N(C)C (stereo not drawn),2,-12
O=C(NCc1ccc2c(c1)OCO2)NCC1CCCC(CNC(=O)NCc2ccc3c(c2)OCO3)C1 (stereo not drawn),26,12
CCOc1cccc2cc(C(C)NCc3ccc(C)o3)oc12 (stereo not drawn),4,-2
Cc1ccccc1Nc1nc(N)nc(COn2nnc3ccc(S(C)(=O)=O)cc32)n1,14,4
CCCN(Cc1nc2cc(Cl)ccc2c(=O)[nH]1)C(=O)c1ccc(S(=O)(=O)N2CCCC2)cc1,13,2
Cc1c(C(=O)NN2CCCCC2)nn(-c2ccc(Cl)cc2Cl)c1-c1ccc(I)cc1,68,14
Cc1nc2n(c(=O)c1CCN1CCC(c3noc4cc(F)ccc34)CC1)CCCC2,4,-2
N#CCCn1cc(C(=O)COc2ccccc2C#N)c2ccccc21,12,-1
COC(=O)CCc1ccc(OCC(O)CNC(C)C)cc1 (stereo not drawn),8,8
Cc1ccccc1Nc1nc(N)nc(COC(=O)Cc2c[nH]c3ccccc23)n1,10,-4
Cc1oc(-c2ccccc2)nc1C(=O)N(C)CC(=O)Nc1ccc(N2CCOCC2)cc1,8,10
O=S(=O)(NC1CCCc2ccccc21)c1ccc2c(c1)OCCO2 (stereo not drawn),6,2
C=CCn1c(-c2ccccc2Cl)nn(CCC#N)c1=S,18,8
CN(Cc1cccs1)C(=O)CSc1nnc(-c2ccccc2)n1-c1ccccc1,10,10
Cc1ccc(S(C)(=O)=O)cc1C(=O)NC1CCC(C)CC1 (stereo not drawn),3,6
Cc1cccc(C)c1NC(=O)CSc1ncccc1C(=O)O,6,6
C=CCNC(=O)COc1ccc2c(C)cc(=O)oc2c1,5,4
CN(C)S(=O)(=O)c1cccc(CN2C(=O)NC(CCc3ccccc3)C2=O)c1 (stereo not drawn),8,4
COc1ccc(NC(=O)CCc2nc3cc(S(=O)(=O)N4CCCCC4)ccc3n2C)cn1,53,-2
CCCCn1c(-c2ccco2)nc2ccccc2c1=O,20,14
O=C(NCc1ccc2c(c1)OCO2)C1CC2C=CC1C2 (stereo not drawn),-11,3
COC(=O)C(C)Sc1ncnc2sc(C)c(C)c12 (stereo not drawn),13,7
CC(C(=O)O)n1c(=S)[nH]c2ccccc2c1=O (stereo not drawn),12,14
O=c1[nH]cc(-c2ccc(Br)cc2)n1Cc1ccccc1,22,14
CC(C)(C)P(=Nc1ccc(Br)cc1)(N1CCOCC1)N1CCOCC1,0,-4
O=C(O)CCn1nc(-c2cccs2)oc1=O,18,4
CCCn1c(C)cc(C(=O)COC(=O)c2ccc(S(C)(=O)=O)cc2)c1C,8,4
CC(OC(=O)c1ccc2c(c1)S(=O)(=O)N=C1CCCCCN12)C(=O)NC1CC1 (stereo not drawn),3,3
O=C1NC(=O)C2CC=CCC12 (stereo not drawn),2,2
COc1ccc(C(=O)C(C(c2ccccc2)N2CCOCC2)N2CCOCC2)cc1 (stereo not drawn),1,4
O=C1CCC(C(=O)N=c2sccn2Cc2ccc(Cl)cc2Cl)=NN1,15,12
CC(=O)N1CCC(C(=O)OCC(N)=O)(c2ccccc2)CC1,4,4
CC(C)NC(=O)CN1CCN(Cc2c(O)ccc3cc(Br)ccc23)CC1,28,2
CCc1nc2n(n1)C(c1ccc3c(c1)OCO3)C(C(=O)Nc1ccccc1OC)=C(C)N2 (stereo not drawn),-108,-56

# Structural class: the entries above containing fluorine
SMILES,BmaI1,BmaI1 counterscreen
CC(C)C(=O)Nc1ccccc1OC(F)F,9,8
Cc1nc2n(c(=O)c1CCN1CCC(c3noc4cc(F)ccc34)CC1)CCCC2,4,-2

# Other records:
SMILES,BmaI1,BmaI1 counterscreen
CN(C)C1(CNCC(=O)Nc2ccc(Cl)cc2Cl)CCCCC1,12,14
CC1CC(C)CN(S(=O)(=O)c2ccc3nnn(O)c3c2)C1 (stereo not drawn),8,0
COc1ccc(-n2c(Sc3ncccn3)nc3ccccc3c2=O)cc1OC,0,10
Cc1cccc(-n2nnnc2SCC(=O)c2c[nH]c3ccccc23)c1,10,7
O=C(OCC(=O)c1cccs1)c1ccc2c(c1)S(=O)(=O)c1ccccc1C2=O,10,8
C[C@]12C[C@H](O)[C@H]3[C@@H](CCC4=CC(=O)CC[C@@]43C)[C@@H]1CC[C@@H]2C(=O)CO,57,10
CC(Oc1ccc2oc3ccccc3c2c1)C(=O)NC(N)=O (stereo not drawn),2,7
O=C(COC(=O)c1ccc(Cl)nc1)NCc1ccccc1Cl,10,4
CC(Sc1n[nH]c(-c2ccncc2)n1)C(=O)N(C)c1ccccc1 (stereo not drawn),2,7
COc1ccc(C)cc1NC(=O)C1CC1C (stereo not drawn),-4,-4
COC(CNc1ncnc2sc3c(c12)CCC3)OC,28,1
COc1ccc(N2CCN(Cc3nc4ccsc4c(=O)[nH]3)CC2)cc1,-22,-66
O=C(COC(=O)c1ccc(O)cc1)Nc1cc(C(F)(F)F)ccc1N1CCOCC1,25,-8
O=C1CN=C(c2ccccc2)c2cc([N+](=O)[O-])ccc2N1,1,2
Cn1c(N)c(C(=O)CN2CCN(S(=O)(=O)/C=C/c3ccccc3)CC2)c(=O)n(C)c1=O,10,4
N#Cc1ccc(NC(=O)c2cc(C3CC3)nn2-c2ccccc2)cc1,16,8
CS(=O)(=O)Nc1ncnc2sccc12,30,12
Cc1ccc(SCC(=O)NCCCN2CCCC2=O)c(C)c1,8,0
COc1cccc(NC(=O)CN(C)CC(=O)Nc2cccc(Br)c2)c1,-8,-4
CCN1CCC(=NNC(=O)COc2ccc(Cl)cc2Cl)CC1,-1,43
O=C(COc1ccc(Cl)cc1Cl)NC(=O)NC1CCCC1,20,20
COC(=O)c1c(Cc2cccc(C(F)(F)F)c2)c[nH]c1C,-2,-4
CC(Sc1nnc(-c2ccco2)n1C(C)C1CC2CCC1C2)C(N)=O (stereo not drawn),20,12
CN(CC1COc2ccccc2O1)C(=O)C1(c2ccccc2)CC1 (stereo not drawn),5,4
O=C1c2ccccc2C(=O)N1CSc1nnc(Nc2ccccc2)s1,2,-3
Nc1nnc(-c2cccs2)c(=O)n1N,20,70
CCOC(=O)c1[nH]c(CSc2cccc[n+]2[O-])c(C(=O)OCC)c1C,14,2
Cc1cc(=O)c(C(=O)O)nn1-c1ccccc1,-6,-8
c1cc2n[nH]nc2cn1,12,-4
O=C(OCC1COc2ccccc2O1)c1c(F)cccc1F (stereo not drawn),12,10
CC1CN(Cn2nc(-c3cccc(S(=O)(=O)N4CCOCC4)c3)oc2=S)CC(C)O1 (stereo not drawn),19,6
COc1cccc(-c2nnc(SC3CCOC3=O)n2C)c1 (stereo not drawn),-9,-2
Cc1cc(-c2csc(/N=C/N(C)C)n2)c(C)n1-c1ccc(F)cc1,25,3
Cc1cc(C(=O)CSc2nncn2C)c(C)n1-c1ncn[nH]1,12,17
O=C(COC(=O)Cc1n[nH]c(=O)c2ccccc12)NCC1CCCO1 (stereo not drawn),12,8
CC(C)CSc1nc(-c2ccco2)c(C#N)c(=O)[nH]1,4,2
O=C(Cc1n[nH]c(=O)c2ccccc12)OCCCn1c(=O)[nH]c2ccccc21,14,7
Cn1ccnc1C(=O)c1cccc(S(=O)(=O)N2CCCc3ccccc32)c1,16,16
O=C(CN(CCc1ccc2c(c1)OCCO2)CC(=O)NC1CC1)NC1CC1,6,6
CC1CCCCN1C(=O)CSc1nnc(-c2ccccc2)n1-c1ccccc1 (stereo not drawn),6,-2

# Part of the list above, field by field.
> CN(CC1COc2ccccc2O1)C(=O)C1(c2ccccc2)CC1 (stereo not drawn)
  BmaI1 = 5
  BmaI1 counterscreen = 4

> O=C1c2ccccc2C(=O)N1CSc1nnc(Nc2ccccc2)s1
  BmaI1 = 2
  BmaI1 counterscreen = -3

> Nc1nnc(-c2cccs2)c(=O)n1N
  BmaI1 = 20
  BmaI1 counterscreen = 70

> CCOC(=O)c1[nH]c(CSc2cccc[n+]2[O-])c(C(=O)OCC)c1C
  BmaI1 = 14
  BmaI1 counterscreen = 2

# Going on with the list:
SMILES,BmaI1,BmaI1 counterscreen
O=C(NC1CCN(Cc2ccccc2)CC1)c1cncc(Br)c1,9,6
Cc1nn(Cc2ccccc2Cl)c(C)c1CN(C)Cc1cc(=O)n2c3c(sc2n1)CCCC3,18,4
COc1ccc(CNC(=O)CSc2nc(C)cc(=O)[nH]2)cc1,-16,7
CC(Sc1nc2cc(Cl)ccc2c(=O)n1C1CCCCC1)C(=O)NC(N)=O (stereo not drawn),12,16
CCCC1(CCC)NC(=O)N(Cn2nnc3ccccc3c2=O)C1=O,6,-2
O=C(CSCCCn1c(=O)[nH]c2ccccc21)N1CCc2ccccc21,14,8
CCN(CC(=O)Nc1ccc(C#N)cc1)CC(=O)Nc1ccc2c(c1)OCCO2,-4,-4
CCCCCn1c(-c2ccccc2)nc2ccccc21,12,6
CC(=O)Nc1ccc(SCC(=O)NC(=O)NC2CCCCC2)cc1,22,14
CN(CCc1ccccn1)c1ncnc2sccc12,16,4
COc1cc(SC)ccc1C(=O)OCC(=O)N(C)C1(C#N)CCCCC1,16,2
CCc1cc(SC/C(O)=C(\C#N)c2nc3ccccc3[nH]2)n2c(nc3ccccc32)c1C#N,24,-3
O=C(CC1SC(=NC2CC2)NC1=O)Nc1cc(C(F)(F)F)ccc1Cl (stereo not drawn),0,4
O=S(=O)(/C=C/c1ccccc1)N1CCN(c2ncnc3sccc23)CC1,11,2
O=c1[nH]cnc2[nH]ncc12,-74,-48
O=C(CSCc1ccc(F)cc1)Nc1ccc(N2CCOCC2)cc1N1CCOCC1,25,2
Cc1cccc(C)c1NC(=O)CCCSc1nnc(-c2ccccc2)o1,11,15
Cc1noc(C)c1COC(=O)[C@@H](NC(=O)Cc1cccc2ccccc12)C(C)C,2,2
CCN(CC)c1nc(N)c2c(N)nc3c(c2c1C#N)C(=O)CN3Cc1ccccc1,12,2
N#Cc1cnn(-c2nc(-c3ccc(Br)s3)cs2)c1N,4,6
CC1(C)CC2=NN(c3ccccc3)P(=O)(Nc3ccccc3)C2=C(N2CCOCC2)C1 (stereo not drawn),7,5
Fc1ccc(-c2n[nH]c(=S)n2CCN2CCOCC2)cc1,70,50
COC(CNC(=O)c1ccc(-c2cc(Cl)ccc2Cl)o1)OC,17,8
c1cc(-c2nnc(C34CC5CC(CC(C5)C3)C4)o2)ccn1,29,6
N#CCCn1cc(CNCCOc2ccccc2)c2ccccc21,18,10
O=C(O)CNC1=NCCCCC1,10,6
O=C(COC(=O)c1ccc(N2C(=O)c3ccccc3C2=O)cc1)Nc1ccc2[nH]c(=O)[nH]c2c1,22,10
CCS(=O)c1ccccc1C(=O)NCc1ccc(C)cc1 (stereo not drawn),54,4
O=S(=O)(CCN1CCN(S(=O)(=O)c2ccccc2C(F)(F)F)CC1)c1ccc(Br)cc1,19,12
CSc1nc2ccc(NC(=O)c3c(C)nn(-c4ccccc4)c3Cl)cc2s1,4,0
COc1cc2c(cc1OC)CN(CC(=O)NC(=O)NCc1ccccc1)CC2,8,1
CC(CCc1ccccc1)NCC(O)c1ccc(O)c(C(N)=O)c1 (stereo not drawn),-6,0
Cc1cc(C(=O)COC(=O)Cc2coc3cc(O)ccc23)c(C)n1C,32,19
O=C(COc1ncnc2sccc12)c1ccc(Cl)s1,12,6
NC(=O)C1CCN(C(=O)N2c3ccccc3Sc3ccccc32)CC1,12,2
Cc1ccc(OC(C)C(=O)NC(C)(C#N)C(C)C)cc1 (stereo not drawn),16,-9
c1ccc(N2CCN(c3ncnc4sccc34)CC2)nc1,28,15
COc1ccc(S(N)(=O)=O)cc1C(=O)OCc1nc2ccccc2s1,9,-2
CCc1ccc(-c2csc(NC(=O)CCC(=O)N3CCN(C(C)=O)CC3)n2)cc1,12,11
Cc1nc(Sc2nnc3sc4ccccc4n23)c2c3c(sc2n1)CCC3,-2,-2
NC(=O)COC(=O)c1ccccc1OCc1ccc(F)cc1,16,7
CC(NC(=O)c1ccccc1)c1nc2ccccc2n1C(C)C (stereo not drawn),-6,-12
CSc1ccccc1NC(=O)CN1CCC(C)CC1,16,14
O=S1(=O)N=C2CCCCCN2C(c2ccccc2OCc2ccccc2)N1 (stereo not drawn),2,10
CCOC=C(C#N)C#N,-30,-12
O=C1c2cccc3cccc(c23)N1CO,8,8
Cc1cc(/C=N/NC(=O)C(C)Oc2ccc(C#N)cc2)c(C)n1-c1nccs1 (stereo not drawn),-2,-10
Cc1ncc2n1-c1ccc(Cl)cc1C(c1ccccc1F)=NC2,-14,-12
O=C(O)/C=C/c1ccc(OCc2cn3ccccc3n2)cc1,16,2
Cc1nn(CC(C)C)c(Cl)c1C(=O)NC1CC1,4,3
O=C(OCC(=O)N1CCN(S(=O)(=O)c2ccccc2)CC1)C1CCCCC1,7,8

# Assay outcomes (PubChem)

# The list is partial; the hit share may differ from the screen's.
